Screening results as filed in PubChem BioAssay.
TRPML1 blocker: qHTS for Inhibitors of the Human Mucolipin Transient Receptor Potential 1 (TRPML1); 0.02% of 390,000 active; activity change, negative = inhibition, % (concentration not given with the values); Mucolipin-1 (Homo sapiens), Q9GZU1; TRPML1-inducible cells, Ca2+ dye fluorescence, FDSS; stronger effect = lower value; inhibition of EC80 agonist-evoked calcium signal; AID 624415, 2012; in the data active means activity change below about -50%; inconclusive means about -30% to -50%; inactive means above about -30%;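 also: stimulus is agonist 54-4 at its EC80 concentration; % is scaled to controls: 0 for no effect and ±100 for the full control effect; compound concentration not given in the record; the text of the record puts the active cut at -80%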
Target sequence (Q9GZU1 whole entry, looked up): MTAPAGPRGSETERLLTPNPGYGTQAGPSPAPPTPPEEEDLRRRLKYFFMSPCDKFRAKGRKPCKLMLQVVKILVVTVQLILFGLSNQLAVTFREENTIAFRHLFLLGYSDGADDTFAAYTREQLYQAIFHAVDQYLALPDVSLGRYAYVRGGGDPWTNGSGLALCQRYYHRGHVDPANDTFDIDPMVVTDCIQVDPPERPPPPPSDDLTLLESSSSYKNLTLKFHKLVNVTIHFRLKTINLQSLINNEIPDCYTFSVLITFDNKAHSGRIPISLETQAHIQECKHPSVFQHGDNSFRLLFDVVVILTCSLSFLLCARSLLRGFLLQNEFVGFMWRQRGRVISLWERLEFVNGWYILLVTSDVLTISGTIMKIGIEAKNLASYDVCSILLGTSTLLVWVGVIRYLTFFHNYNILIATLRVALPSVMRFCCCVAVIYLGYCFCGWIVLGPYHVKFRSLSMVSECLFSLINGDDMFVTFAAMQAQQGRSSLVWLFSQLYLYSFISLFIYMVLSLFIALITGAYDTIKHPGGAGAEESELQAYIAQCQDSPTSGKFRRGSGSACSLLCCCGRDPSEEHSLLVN
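Calcium fluorescence in TRPML1-DL cells induced overnight with Tet: a 110 s read after compound pin addition, then a 110 s antagonist read after challenge with 54-4 at 4 uM final (EC80).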
gsp antagonist: qHTS for Antagonists of gsp, the Etiologic Mutation Responsible for Fibrous Dysplasia/McCune-Albright Syndrome: qHTS; 0.4% of 340,000 active; Potency, µM (highest dose often 76.9 µM), for inactives: top-dose activity change, negative = inhibition, most hits filed as inhibitors; gsp-mutant cells, cAMP HTRF, 30 min; control for the full effect not named in the record; active = falling curve of any shape with a large fitted effect; inconclusive = falling curve, mostly with a smaller effect; inactive = flat or rising curve; cell line not stated here;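 also: intracellular cAMP measured with PDE inhibitor Ro 20-1724 present during compound exposure; potency is read from the fitted curve at half-maximal effect; % is scaled to controls: 0 for no effect and ±100 for the full control effect; nearly all actives have a fitted effect of over 65% in size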
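HTRF cAMP measurement after 30 min RT detection following 30 min, 37C compound treatment alongside […] (added as 300 uM solution) in G418-selected cells seeded at 2000/well and grown 16–24 h.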
ClpP mod: qHTS Assay for Activators of ClpP | ATP-dependent Clp protease proteolytic subunit (Bacillus subtilis (strain 168)), P80244 | purified B. subtilis ClpP, FRET peptide cleavage, 20 min | Potency, µM (series often up to 57.5 µM), for inactives: at the top dose activity change, negative = active | 1.9% of 340,000 active | AID 651965, 2013; active = well fitted falling curve with a large enough effect; inconclusive = small, poorly fitted or top-dose-only effect; inactive = no such curve, though single readings can be large or run the other way; also: potency is read from the fitted curve at half-maximal effect; the source files actives as falling curves though it sought activators and does not explain the sign; nearly all actives have a fitted effect of over 65% in size; many hits overshoot -100%
Target sequence (P80244 whole entry, looked up): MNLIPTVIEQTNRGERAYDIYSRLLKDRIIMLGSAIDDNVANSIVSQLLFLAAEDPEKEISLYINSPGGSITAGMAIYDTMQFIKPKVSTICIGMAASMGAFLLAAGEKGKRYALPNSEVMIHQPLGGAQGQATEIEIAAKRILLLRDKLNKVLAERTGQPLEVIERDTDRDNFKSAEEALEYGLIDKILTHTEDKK
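ClpP 10 microg/mL final, pH 8 Tris/KCl buffer with BSA, glycerol, Tween-20; compound pinned in; FRET-FV substrate; RT 20 min; Ex320/Em430; ΔFRET vs ADEP 5.8 microM, DMSO, no enzyme.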
Menin MLL FP FL: qHTS Assay for Inhibitors Targeting the Menin-MLL Interaction in MLL Related Leukemias: Competition With Fluorescein Labeled MLL-derived Peptide | Fluorescence polarization, fluorescein-MLL peptide displacement from menin | FP activity change, % at 61.4 µM | 290,000 tested, under 10 active | AID 1766, 2009; inconclusive = falling polarisation curve, or a change in total fluorescence; inactive = total fluorescence flat and polarisation flat or rising; no compound was filed as active; the % refers to the polarisation; negative = inhibition;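 also: % of control where 0% means no effect; inhibitors lower the polarisation; unlabelled MLL peptide was the positive control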
gsp ag: qHTS for Agonist of gsp, the Etiologic Mutation Responsible for Fibrous Dysplasia/McCune-Albright Syndrome: qHTS | gsp mutant cells, cAMP HTRF, 30 min; control for the full effect not named in the record | 0.13% of 340,000 active | Potency, µM (highest dose often 76.9 µM), for the others: at the top dose activation (cAMP increase), hits mostly activators | AID 624287, 2012; active = well fitted activation curve with a large enough effect; inconclusive = small, poorly fitted or top-dose-only effect, or another doubt; inactive = no such curve, though single readings can be large or run the other way; cell line not stated here;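 also: phosphodiesterase inhibitor Ro 20-1724 added with compounds to block cAMP breakdown; potency is read from the fitted curve at half-maximal effect; nearly all actives have a fitted effect of over 60% in size; about a fifth of the inactives were tested at one dose only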
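Cells in DMEM/10% FBS with G418 were pretreated with compounds in DMSO plus […] (300 uM stock) for 30 min at 37C. cAMP was measured by HTRF (cAMP-d2 plus anti-cAMP antibody-K) after 30 min at room temperature.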
TRPML1 ag: qHTS for Agonists of the Human Mucolipin Transient Receptor Potential 1 (TRPML1). TRPML1-expressing cells, Ca2+ dye fluorescence, FDSS; host cell line not named in the record; reference of the full effect not given here. activation, % (concentration not given with the values). 0.12% of 410,000 active. AID 624414, 2012; in the data active = activation above about 50%; inconclusive = about 30% to 50%; inactive = below about 30%; also: 0% is about no effect; the text of the record puts the active cut at 80%
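In this qHTS format, compounds were pin-transferred onto Ca8-dye-loaded TRPML1-DL cells induced with Tet overnight, and intracellular Ca2+ fluorescence was recorded kinetically for 110 s after a 10 s baseline. A subsequent 4uM final 54-4 (EC80) addition followed by a second 110 s read served as the antagonist phase.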
An asterisk follows results filed as active; ? = inconclusive; . = no result given; [ ] = dose if it differs, or a comment. The order is random; 2.1% or so of the library scored in one or more.

Key to letters – A = TRPML1 blocker; B = gsp antagonist; C = ClpP mod; D = Menin MLL FP FL; E = gsp ag; F = TRPML1 ag
1. CC(C)Oc1ccc(-c2cc(=O)[nH]c(=O)[nH]2)cc1
  A = -1	B = 2%	C = -14%	D = 0.0	E = 6%	F = 0.9

2. O=C(NCCN1CCOCC1)c1ccc(NS(=O)(=O)c2cccc([N+](=O)[O-])c2)cc1
  A = 37	B = 2%	C = -3.8%	D = .	E = -36%[inhibitor]	F = 0.2

3. CCCCS(=O)(=O)N1CCCC(C(=O)Oc2ccccc2)C1 (configuration not stated)
  A = .	B = -8%	C = 0.1%	D = -1.4	E = -2%	F = .

4. O=C(Cc1ccc(Br)cc1)Nc1ccc(S(=O)(=O)Nc2ncccn2)cc1
  A = 15	B = 0%	C = -0.1%	D = -3.2	E = 11%[15.4 µM]	F = -0.2

5. CCN(CC(=O)Nc1c(F)cccc1F)C(=O)c1ccc(S(=O)(=O)N(CC)c2ccccc2)cc1
  A = 2	B = -16%	C = 0.9%	D = .	E = 25%	F = -1.0

6. Cc1ccc(S(=O)(=O)N(C)C)cc1NC(=S)NCCc1ccccn1
  A = -17	B = 8%	C = 1.4%	D = 3.8	E = 13%	F = 0.5

7. COc1ccc(S(=O)(=O)N2CCC(C(=O)NC3CCCCC3)CC2)cc1OC
  A = 2	B = 12%	C = 0.8%	D = .	E = -2%	F = 0.1

8. CC1CCN(S(=O)(=O)c2cc(C(=O)NC3(C)CCS(=O)(=O)C3)ccc2Br)CC1 (configuration not stated)
  A = 9	B = ?	C = 1.7%	D = .	E = 14%	F = -0.3

9. Cc1ccc(C(=O)N2N=C3c4ccccc4S(=O)(=O)N3[C@H]2N(C)C)cc1
  A = -19	B = -9%	C = 3.9%	D = 3.6	E = ?	F = 0.2

10. CCN(CC)S(=O)(=O)c1cc(C(=O)OCC(=O)NC2CCCc3ccccc32)ccc1C (configuration not stated)
  A = -3	B = ?	C = 1.0%	D = 8.4	E = -36%[inhibitor]	F = 1.1

11. CCOC(=O)/C(=N\Nc1ccc(Cl)cc1)Sc1nnc(-c2ccc(OC)cc2)n1C
  A = -2	B = -16%	C = -28%	D = 0.4	E = -1%	F = -0.5

12. O=C(Nc1ccccn1)c1ccc(Cl)c(S(=O)(=O)N2CCOCC2)c1
  A = -15	B = 3%	C = -2.1%	D = .	E = -47%[inhibitor]	F = 0.2

13. Cc1nc(C)c(CCNC(=O)c2ccccc2Br)s1
  A = 28	B = -3%	C = -5.1%	D = 3.4	E = -27%	F = 0.5

14. CC(=O)NCCN=Cc1sc2ccccc2c1O
  A = 27	B = -20%	C = 1.9%	D = 1.7	E = 7%	F = 0.0

15. O=C(Cc1ccc([N+](=O)[O-])cc1)NCc1cccnc1
  A = 37	B = 1%	C = -9.9%	D = -1.1	E = 4%[15.4 µM]	F = -0.2

16. COC(=O)c1sc(NC(=O)Cc2cccs2)nc1C
  A = 11	B = 2%	C = -1.9%	D = 2.3	E = ?	F = 1.5

17. CCc1nn(CC(=O)Nc2ccc(Br)c(C)c2)c(=N)s1
  A = -14	B = 18%	C = 1.4%	D = 1.4	E = -9%[15.4 µM]	F = -0.1

18. CC(=O)N1CC=C2C(C#N)=C(N)C(C#N)(C#N)C(C)C2C1 (configuration not stated)
  A = 3	B = 12%	C = -12%	D = -4.1	E = 25%	F = 0.1

19. CC1CCCCC1NC(=O)c1ccc(N2CCCC2=O)cc1 (configuration not stated)
  A = 33	B = 7%	C = -0.7%	D = -0.8	E = 3%	F = 2.8

20. CSc1ccccc1C(=O)OCC(=O)NC1CC1
  A = 10	B = .	C = -2.5%	D = .	E = 13%	F = -0.3

Continued; the last 5 above are carried over.
Key to letters – A = TRPML1 blocker; B = gsp antagonist; C = ClpP mod; D = Menin MLL FP FL; E = gsp ag; F = TRPML1 ag
16. COC(=O)c1sc(NC(=O)Cc2cccs2)nc1C
  A = 11	B = 2%	C = -1.9%	D = 2.3	E = ?	F = 1.5

17. CCc1nn(CC(=O)Nc2ccc(Br)c(C)c2)c(=N)s1
  A = -14	B = 18%	C = 1.4%	D = 1.4	E = -9%[15.4 µM]	F = -0.1

18. CC(=O)N1CC=C2C(C#N)=C(N)C(C#N)(C#N)C(C)C2C1 (configuration not stated)
  A = 3	B = 12%	C = -12%	D = -4.1	E = 25%	F = 0.1

19. CC1CCCCC1NC(=O)c1ccc(N2CCCC2=O)cc1 (configuration not stated)
  A = 33	B = 7%	C = -0.7%	D = -0.8	E = 3%	F = 2.8

20. CSc1ccccc1C(=O)OCC(=O)NC1CC1
  A = 10	B = .	C = -2.5%	D = .	E = 13%	F = -0.3

21. O=C(CSc1nnc(Nc2ccccc2)s1)NCC1CCCO1 (configuration not stated)
  A = 6	B = 1%	C = -0.2%	D = .	E = -13%	F = -0.5

22. CCn1cc2c(n1)-c1c(oc(C(=O)Nc3cccc(C)c3C)c1C)CC2
  A = 10	B = .	C = -3.0%	D = .	E = .	F = 6.0

23. CN(C)/C=C(\C#N)C(=O)c1cccnc1Oc1cccc(F)c1
  A = -10	B = -3%	C = 0.4%	D = -0.3	E = ?	F = 0.1

24. COC(=O)C1=C[C@@H](C(=O)OC)[C@H]2C3=C(C(=O)[C@@]2(C)NC(=O)c2ccccc2)[C@H](C)C(C(=O)OC)=C(C(=O)OC)[C@@H]3C1
  A = -14	B = .	C = .	D = -4.6	E = .	F = 0.6

25. O=C(COC(=O)COc1ccccc1)NCCc1ccccc1
  A = -15	B = 2%	C = .	D = .	E = -1%[15.4 µM]	F = -0.1

26. Nc1nc(NCc2cccs2)nn1-c1ccccc1
  A = 16	B = 27%	C = -1.3%	D = .	E = -1%	F = -0.1

27. COc1ccc(-n2nc(C(=O)N3CCCC(C)C3)c3c4ccccc4n(C)c3c2=O)cc1 (configuration not stated)
  A = 6	B = .	C = -23%	D = .	E = .	F = 2.1

28. Clc1ccc(C2CSc3c4ncnc-4ncn32)cc1 (configuration not stated)
  A = 2	B = 5%	C = .	D = -0.6	E = ?	F = 0.6

29. COc1cc2cc(CN(Cc3cccnc3)C(=O)Nc3ccccc3)c(=O)[nH]c2cc1OC
  A = -6	B = .	C = .	D = -5.7	E = -12%[15.4 µM]	F = -0.5

30. COC(=O)C1=C(C(=O)OC)[C@@H]2N(C)c3ccccc3[C@@]23C[C@@H](C(=O)OC)N(C(=O)C2CCC2)C3=N1
  A = -20	B = ?	C = -1.5%	D = -2.1[11.7 µM]	E = -6%	F = 0.3

31. Cc1cc(C2=NNC(=NC3CC3)SC2)c(C)n1-c1ccccc1
  A = 3	B = -2%	C = -4.2%	D = -0.1	E = ?	F = 0.0

32. C(=N\n1cnnc1)/c1cccn1-c1ccccc1
  A = 3	B = 9%	C = -3.5%	D = 5.2	E = 0%	F = 0.6

33. O=C(Nc1ccc(F)c(Cl)c1)N1CCCC1
  A = 16	B = 14%	C = .	D = 3.2	E = 8%[15.4 µM]	F = -0.7

34. O=C(NCC1CCCO1)c1ccc(NS(=O)(=O)c2ccccc2)cc1 (configuration not stated)
  A = 2	B = 6%	C = .	D = -1.0	E = -56%[inhibitor]	F = 0.2

35. Cc1ccc(C(=O)N/C(=C\c2ccccc2)C(=O)NCc2cccnc2)cc1
  A = -6	B = 0%	C = -6.9%	D = -4.1	E = -4%[15.4 µM]	F = -0.7

36. c1ccc2c(c1)oc1c(Nc3ccc4c(c3)OCCO4)ncnc12
  A = 14	B = -10%	C = 119%	D = 0.2	E = 16%	F = 3.3

37. CCOC(=O)c1c(-c2ccccc2)csc1NC(=O)CSc1nc(N)cc(N)n1
  A = 5	B = ?	C = -2.3%	D = 5.8	E = -1%	F = 2.0

38. CCOC(=O)C1(C)C=C(Nc2ccc(C(N)=O)cc2)C(=O)N1c1ccccc1 (configuration not stated)
  A = -21	B = .	C = -2.6%	D = .	E = .	F = -1.5

39. COC(=O)c1cc2oc3ccccc3c2n1Cc1cccc(C)c1
  A = -2	B = .	C = 4.5%	D = .	E = .	F = -0.3

40. O=C(CN1C(=O)c2ccccc2C1=O)Nc1ccc(S(=O)(=O)N2CCOCC2)cc1
  A = -26	B = -1%	C = .	D = 1.1	E = -8%	F = 2.5

41. COCCn1c(=N)c(S(=O)(=O)c2ccc(F)cc2)cc2c(=O)n3ccccc3nc21
  A = 6	B = -2%	C = 3.5%	D = 0.1	E = ?	F = 0.6

42. O=C1C2C(c3ccccc3)C=CC(c3ccccc3)C2C(=O)N1c1cccnc1 (configuration not stated)
  A = 11	B = 17%	C = -1.8%	D = 2.7	E = -3%	F = -0.8

43. CCOC(=O)c1cc2c(=O)n3cccc(C)c3nc2n(CC(C)C)c1=NC(=O)c1ccco1
  A = -2	B = -18%	C = .	D = -2.7	E = 19%	F = 1.3

44. COc1ccc(OC)c(C2SCCN2S(C)(=O)=O)c1 (configuration not stated)
  A = -13	B = 7%	C = -0.1%	D = 0.5	E = 3%	F = -0.3

45. C=CCn1c(CNS(=O)(=O)c2ccc(Br)cc2)nnc1SC
  A = -3	B = 14%	C = 0.4%	D = .	E = 1%	F = 0.0

46. Cc1noc(C)c1CN(C(=S)NC(C)C)c1ccccc1
  A = 68	B = -13%	C = 1.1%	D = 11	E = 10%[15.4 µM]	F = -0.5

47. CCC(=NCCc1ccccc1)C1=C(O)CCC1=O
  A = 11	B = 4%	C = 0.6%	D = 3.5	E = 15%	F = -0.3

48. CSc1cccc(-n2nnc(-c3nsc(NC(=O)c4cccs4)n3)c2C)c1
  A = -15	B = .	C = ?	D = .	E = .	F = 1.1

49. CC(=O)c1cccc(NC(=O)c2cnccn2)c1
  A = -9	B = 7%	C = -1.4%	D = 0.8	E = 7%	F = -1.0

50. C=CCn1c(N2CCCC2)nc2c1c(=O)[nH]c(=O)n2C
  A = 10	B = 4%	C = -0.7%	D = 3.4	E = -1%	F = 0.4

51. c1ccc(COc2cccc(CN3CCN(c4ccccn4)CC3)c2)cc1
  A = -3	B = 4%	C = -12%	D = -2.1	E = 13%	F = -0.6

52. CCC(=O)c1c[nH]c(C(=O)N2CCN(c3ccccc3)CC2)c1
  A = 42	B = 0%	C = .	D = -1.9	E = 9%[15.4 µM]	F = 1.7

53. COc1ccc(NC(=O)Cn2c(=O)n(Cc3ccco3)c(=O)c3sc4ccccc4c32)cc1Cl
  A = -12	B = .	C = -17%	D = .	E = .	F = -0.5

54. O=C(CN1CCOCC1)NNc1nc(-c2ccccc2)c2cc(Br)ccc2n1
  A = -9	B = -8%	C = -4.3%	D = 1.9	E = -17%	F = 1.3
